# VDR inhibitor = blocks the human vitamin D receptor | P11473 | VDR-SRC2-3 peptide fluorescence polarization, 2 h | Potency, µM, without a hit: max response, negative = inhibition, most hits filed as inhibitors | 0.93% of 400,000 active; active = well fitted inhibition curve with a large enough effect; inconclusive = small, poorly fitted or top-dose-only effect, or another doubt; inactive = no such curve, though single readings can be large or run the other way; also: series mostly up to about 120 µM
# Target sequence (P11473 whole entry, looked up): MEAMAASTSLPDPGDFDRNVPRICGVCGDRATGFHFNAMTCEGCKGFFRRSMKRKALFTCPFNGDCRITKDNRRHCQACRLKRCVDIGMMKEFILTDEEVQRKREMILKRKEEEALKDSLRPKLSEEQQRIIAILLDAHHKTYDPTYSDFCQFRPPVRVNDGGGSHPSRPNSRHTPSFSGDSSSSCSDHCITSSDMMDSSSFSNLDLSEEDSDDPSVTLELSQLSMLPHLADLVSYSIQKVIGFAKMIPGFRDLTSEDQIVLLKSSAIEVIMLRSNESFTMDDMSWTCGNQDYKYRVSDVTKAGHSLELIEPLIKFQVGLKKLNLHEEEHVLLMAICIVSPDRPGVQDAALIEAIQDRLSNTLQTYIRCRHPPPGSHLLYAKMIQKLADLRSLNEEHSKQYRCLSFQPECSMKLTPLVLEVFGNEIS
#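 Reagent solutions, kept cold and dark, are dispensed first; compounds are then pinned in at 23 nl, plates briefly spun, and incubated 2 h at ambient temperature. Inhibition of VDR–SRC2-3 peptide binding is read by fluorescence polarization.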
# Active calls of the source: *; ? = inconclusive; & = joins results of further samples; [ ] = remark or other dose. % is scaled to controls: 0 for no effect and ±100 for the full control effect; potency is read from the fitted curve at half-maximal effect. This is a subset (hit frequency here may not be typical).
SMILES	VDR inhibitor
Cc1ccc(S(=O)(=O)N2C[C@@H]3c4ccccc4N(S(=O)(=O)c4ccc(C)cc4)[C@@H]3[C@@H](C)C2CC(=O)c2ccccc2)cc1 (stereo partly drawn)	8%
O=C(c1ccc2c(c1)CCN2S(=O)(=O)c1ccccc1)N1CCN(c2ccc(F)cc2)CC1	-5%&14%
COCCCNC(=O)CSc1nc2ccccc2c(=O)n1CCc1ccc(S(N)(=O)=O)cc1	-9%
Nc1nc(Br)c2ccccc2c1-c1ccccc1	-5%
N#C/C(=C\c1ccccc1OCC(=O)O)c1nc2ccccc2[nH]1	-4%
COc1ccccc1C(=O)c1ccccc1C(=O)c1ccccc1	-10%
O=C(N/N=C/c1sc(=O)[nH]c1-[n+]1ccc2ccccc2c1)c1ccccc1[O-]	?
c1ccc(CC2CCN(Cc3ccccn3)CC2)cc1	-5%
N=c1c2c3c(sc2nc2n1CCCCC2)CCCCC3	0%
Cc1cc(S(=O)(=O)Nc2c(C)nn(C)c2C)c(Cl)cc1Cl	43%[activator]

SMILES	VDR inhibitor
Cc1ccc2nc(N3CCN(c4ccccc4)CC3)c(C=O)c(=O)n2c1	1%
O=C(NC1CCCC1)c1ccc(Br)o1	13%
COn1c(-c2ccc(Cl)cc2Cl)nc2ncccc21	-9%
CCOC(=O)OCC(=O)C1(O)CCC2C3CCC4=CC(=O)CCC4(C)C3C(O)CC21C (stereo not drawn)	8%
O=C(O)c1ccc(NC(=O)c2ccc(COc3ccccc3)o2)cc1	-3%
O=C(N/N=C\c1cccnc1)c1cc(-c2ccccc2)nc2c(Cl)cccc12	10%
CCOc1ccc(NC(=O)c2cnc(N3CCCCC3)c3ccccc23)cc1	10%
Cc1nn(-c2nnc(NCc3ccccc3)nn2)c(C)c1Br	-11%
Cn1cccc1C(=O)N1CCC2(CC1)CN(Cc1ccc(C#N)cc1)C2	-1%
O=C(OCc1ccc(O)cc1)c1c(-c2ccsc2)oc2ccc(N3CCOCC3)cc12	2%

SMILES	VDR inhibitor
CCOC(=O)C1CCN(C(=O)Cn2nc(C)n3c(cc4cc(F)ccc43)c2=O)CC1	12%&-18%
COc1ccc(-n2nc3c(c2NC(=O)COc2ccccc2)CS(=O)C3)cc1 (stereo not drawn)	-7%
CC1CCN(CC(O)COc2ccc(OCC(O)CN3CCC(C)CC3)cc2)CC1 (stereo not drawn)	-13%
Cc1nn(CC(=O)O)c(C)c1NC(=O)c1cccs1	10%
CCCC(=O)Nc1ccc(Cl)c(NC(=O)CC)c1	-28%
Cn1cccc1C(=O)NC(=O)COC(=O)c1ccc(S(C)(=O)=O)c([N+](=O)[O-])c1	?
Cc1cc(C(=O)Nc2ccc(Br)cc2)c2ccccc2n1	-3%
O=C(CSc1nccn(-c2ccc(Br)cc2)c1=O)NCc1ccccc1	-14%
NNC(=O)Cn1nc2n(c1=O)-c1ccccc1SC2	11%
Cc1nn(Cc2cccc(F)c2)c(C)c1NC(=O)c1ccc(COc2ccccc2Cl)cc1	15%

SMILES	VDR inhibitor
COc1ccc(-c2noc(-c3ccc(N4CCCCC4)c([N+](=O)[O-])c3)n2)cc1	-1%
COc1ccc(CCNC(=O)c2c(O)c3c([nH]c2=O)CCCC3)cc1OC	-12%
COc1ccc(-n2c(SCC(=O)O)nc3sc4c(c3c2=O)CCC4)cc1	?
CN(C)c1ccc(NC(=O)CSC2=Nc3ccccc3C3=NC(CC(=O)NCc4ccccc4)C(=O)N23)cc1 (stereo not drawn)	4%
Cc1oc(-c2cccc(Cl)c2)nc1CS(=O)(=O)CC(=O)NCCCN1CCOCC1	-15%
O=C(NNc1c(F)c(F)cc(F)c1F)c1cc2ccccc2oc1=O	-11%
O=C(Nc1ccccc1)Nc1ccc(Br)c(Cl)c1	-11%
O=C(CSC(=S)N1CCCC1)NCC(=O)Nc1ccc(F)c(F)c1	-8%
Cn1c2c(c(=O)n(C)c1=O)C(c1ccccc1[N+](=O)[O-])CC(=O)N2 (stereo not drawn)	-12%
CCC(=O)c1cn(CC(=O)Nc2cc(C)ccc2C)c2ccccc12	-3%

# Part of the list above, as labelled records:
SMILES: COc1ccc(-c2noc(-c3ccc(N4CCCCC4)c([N+](=O)[O-])c3)n2)cc1
  VDR inhibitor: -1%
SMILES: COc1ccc(CCNC(=O)c2c(O)c3c([nH]c2=O)CCCC3)cc1OC
  VDR inhibitor: -12%
SMILES: COc1ccc(-n2c(SCC(=O)O)nc3sc4c(c3c2=O)CCC4)cc1
  VDR inhibitor: ?
SMILES: CN(C)c1ccc(NC(=O)CSC2=Nc3ccccc3C3=NC(CC(=O)NCc4ccccc4)C(=O)N23)cc1 (stereo not drawn)
  VDR inhibitor: 4%

# Further records follow.
SMILES	VDR inhibitor
CN(Cc1ccccc1)C(=O)c1nc2ccccn2c1CNCCCOc1cccnc1	-30%
CC(=O)NC1C(O)OC(CO)C(O)C1O (stereo not drawn)	-3%
O=C(Nc1ccc(-c2cn3ccccc3n2)cc1)c1ccc(Cl)cc1	-4%
CCN(CC)C(C)C(=O)NCC1(c2ccccc2)CCOCC1 (stereo not drawn)	-3%
NCCCC[C@@H](C(=O)N1CCNCC1)n1cc([C@@H](N)CC(N)=O)nn1	-20%
CSc1ccc(Cl)c(C(=O)N(C)CC(=O)Nc2ccc(N3CCOCC3)cc2)c1	4%
CC(=O)NC1CC2CCCC(C1)N2S(=O)(=O)c1cccc(F)c1 (stereo not drawn)	-20%
CNC(=S)N1N=C(c2ccccc2)CC1c1ccc(Br)cc1 (stereo not drawn)	15%
COC(=O)c1ccc(CNS(=O)(=O)c2ccc3ccccc3c2)cc1	-3%
COc1cc(NC(=O)c2cnn(-c3cccc(F)c3)c2C2CCNCC2)cc(OC)c1OC	9%

SMILES	VDR inhibitor
NC(=O)C1(N2CCCCC2)CCN(CC(=O)Nc2ccc(Oc3ccccc3)cc2)CC1	-4%
COc1ccc(N2CC3=C(C2=O)C(c2ccc(O)c(OC)c2)NC(=O)N3C)cc1 (stereo not drawn)	-7%
CS(=O)(=O)N1CCN(c2ccccc2NC(=O)c2ccco2)CC1	6%
Cc1cccc(N(CC(=O)Nc2ccccc2F)S(C)(=O)=O)c1	-4%
CC1CCc2onc(C(=O)N3CCN(c4cccc(Cl)c4)CC3)c2C1 (stereo not drawn)	9%
CCOC(=O)N/N=C(/C)c1cccc(-n2cnnn2)c1	-8%
CCc1nnc(NC(=O)CSc2nnc(-c3ccc(O)cc3)n2C)s1	-17%
CC(=O)Nc1ccc(Oc2cc(NC(C)=O)cc([N+](=O)[O-])c2)cc1	?
O=C(Cn1cnc2c(nnn2-c2cccc(Cl)c2)c1=O)N1CCCC1	6%
CC(c1cccs1)N(Cc1ccco1)C(=S)Nc1ccccc1Cl (stereo not drawn)	-15%

# Arranged by SMILES length (ascending): part of the list above.
SMILES	VDR inhibitor
CC(c1cccs1)N(Cc1ccco1)C(=S)Nc1ccccc1Cl (stereo not drawn)	-15%
Cc1cccc(N(CC(=O)Nc2ccccc2F)S(C)(=O)=O)c1	-4%
CCc1nnc(NC(=O)CSc2nnc(-c3ccc(O)cc3)n2C)s1	-17%
O=C(Cn1cnc2c(nnn2-c2cccc(Cl)c2)c1=O)N1CCCC1	6%
NC(=O)C1(N2CCCCC2)CCN(CC(=O)Nc2ccc(Oc3ccccc3)cc2)CC1	-4%

# Further records
Structure,VDR inhibitor
NC(=O)NCCN1CCN(c2ncc(C(F)(F)F)cc2Cl)CC1,-1%
Cc1ccc(C)c(NC(=O)c2nn(C)c3c2CS(=O)(=O)c2ccccc2-3)c1,-18%
COC(=O)CC1c2cc(OC)c(OC)cc2CC(=O)c2cc(OC)c(OC)cc21 (stereo not drawn),-3%
CN1C(=S)N(c2ccccc2)C(=O)/C1=C/c1cccs1,?
CCNS(=O)(=O)c1ccc2c(c1)n(C)c(=O)n2C,1%
O=C(c1ccc(Cl)cc1)N(Cc1ccccc1F)N1C(=O)CCCC1=O,6%
COc1ccc(OC)c(S(=O)(=O)N2CCCC(C(=O)NCCN3CCOCC3)C2)c1 (stereo not drawn),0%
CCn1nc(C)c(C2C(C#N)=C(N)OC3=C2C(=O)CC(C)(C)C3)c1C (stereo not drawn),-4%
C/C(=N\NC(=O)c1ccc(N2CCCC2=O)cc1)c1ccc(O)cc1O,-8%
Cc1cccc2cc(C#N)c(SCC#N)nc12,-10%
O=C(Cn1c(=O)nc(-c2ccccc2)c2cc(Cl)ccc21)NCCc1ccccc1,14%
Cc1ccc(C(=O)Nc2ccc3c(c2)OCCO3)c(C)c1,-9%
Cc1ncc(CO)c(/C=N/NC(=O)c2ccccc2Br)c1O,0%
OC[C@H](O)[C@H](O)[C@@H](O)[C@@H](O)[C@@H]1SC(c2ccccc2)=NN1c1ccccc1,22µM*
Cc1ccc(O)c(C(=O)c2cc(C(=O)NCCc3ccccc3)c(=O)n(CCc3ccccc3)c2)c1,3%
Cc1cc(Cl)ccc1NS(=O)(=O)c1c(C(=O)N2CCC(C)CC2)c(C)n(C)c1C,-1%
CCOc1ccc(CN(CCC#N)C(=S)NC(=O)c2ccccc2)cc1,-11%
CCC(C)[C@H](NC(=O)[C@H](Cc1ccccc1)n1c(=O)[nH]c2ccccc2c1=O)C(=O)N1CCC[C@@H]1C(=O)O (stereo partly drawn),-26%
Cc1ccc(Nc2cc(C)nc3nnnn23)cc1,-10%
CCSc1nc(=O)c2c(n1C)NC(=O)CC2c1ccc(O)cc1OC (stereo not drawn),6%
C=CCNC(=O)/C(=C\c1ccco1)NC(=O)c1ccco1,15%
CN(CC(=O)Nc1ccccc1Cl)CC(=O)N(C)c1c(N)n(Cc2ccccc2)c(=O)[nH]c1=O,-11%
FC(F)(F)c1cc(-c2ccco2)nc(-n2nnc3ccccc32)n1,3%
CCN1C(=O)CC(SC2CC(=O)N(CC)C2=O)C1=O (stereo not drawn),-5%
O=C(NCc1ccc(Cl)cc1)c1cnc2sc(N3CCCCCC3)nn2c1=O,-15%

Structure,VDR inhibitor
CN(C)CCN(Cc1ccccc1)C(=O)[C@H](Cc1ccccc1)N1C(=O)c2ccccc2C1=O,-2%
Cc1cc(C)cc(NC(=O)CCC(=O)Nc2nnc(C(F)(F)F)s2)c1,2%
CCOc1ccc(Cl)cc1S(=O)(=O)N1CCC(C(=O)NCc2cccnc2)CC1,-4%
CCCOc1ccccc1NS(=O)(=O)c1ccc2[nH]c(=O)[nH]c2c1,-8%
COc1cccc2c1CCCC2CCCN1CCN(C2CCCCC2)CC1 (stereo not drawn),6%&-13%
CCc1c(C)sc(NC(=O)c2cc(-c3ccc(OC)c(OC)c3)on2)c1C#N,-27%&10%
CCn1c(COC(=O)CNC(=O)c2ccccc2)nc2cc(S(=O)(=O)N(C)C)ccc21,-12%
O=S1OCCN1c1ccccc1 (stereo not drawn),0%
CCC(C)N1C(=S)SC(C)(C)C1N(O)C(=O)NC1CCCCC1 (stereo not drawn),-14%
O=C(COC(=O)c1cc(S(=O)(=O)N2CCOCC2)ccc1O)NCCc1ccccc1,-7%
CN1CCN(c2ccccc2NC(=O)c2ccc(-c3ccccc3)cc2)CC1,4%
CCc1ccc(CNC(=O)c2cnc3sc(N4CCCCC4)nn3c2=O)cc1,-7%
CC1CCN(CC(=O)Nc2nn(-c3ccccc3)nc2C(N)=O)CC1,-7%
CC1=NN(c2nc(-c3ccc(C)cc3)cs2)C(=O)C1N=Nc1cccc(O)c1 (stereo not drawn),79µM*
COc1ccc(C2Nc3ccccc3C(=O)N2Cc2ccccc2)cc1Cn1nnc2ccccc21 (stereo not drawn),-9%
O=C(CSc1ccc(-c2cccc([N+](=O)[O-])c2)nn1)N1CCCCCC1,-27%
COc1ccc(-c2nnc(SCc3ncc(-c4ccccc4)o3)o2)cc1,7%
Cc1noc(C)c1COC(=O)C(c1ccccc1)c1ccccc1,-9%
CCOC(=O)C1CCN(c2cc(C)nc3c(-c4ccccc4OC)c(C)nn23)CC1,2%
Cn1c(C(=O)N2CCCC(C(=O)NCc3ccc4c(c3)OCO4)C2)cc2sccc21 (stereo not drawn),-6%
CCCCCCCCCCN1CCOCCOCCN(CCCCCCCCCC)CCOCCOCC1,4%
Cc1cc(CSc2ccc(Cl)cc2)ccc1N,-10%
Nc1nnc2cc(Cl)ccc2n1,19%
CN1C(=O)C(O)(c2sc(N)nc2-c2ccccc2)c2ccccc21 (stereo not drawn),3%
CCN(CC)S(=O)(=O)c1ccc2[nH]c(=O)cc(C(=O)Nc3ccccc3N3CCCC3)c2c1,-19%

Structure,VDR inhibitor
CCN1C(=O)[C@H]2[C@@H](c3ccc(-c4ccccc4)cc3)N[C@@](CC(C)C)(C(=O)OC)[C@H]2C1=O,-5%
O=C(CCN1C(=O)C2CC=C(Cl)CC2C1=O)Nc1ccccc1O (stereo not drawn),-4%
O=C(NC1CCCCC1)C(c1cccnc1)N(C(=O)c1ccc(Cl)nc1)C1CCCCC1 (stereo not drawn),-22%
CN(Cc1ccccc1)S(=O)(=O)c1ccc(OCC(=O)NCc2ccccn2)cc1,12%
CC(C)n1ncc2c(C(=O)N3CCN(c4ccc(F)cc4)CC3)cc(-c3ccccc3)nc21,15%
Nc1ccc2nc(-c3cccc(-c4nc5ccc(N)cc5[nH]4)c3)[nH]c2c1,?
Cc1csc(SCC(=O)Nc2nncs2)n1,1%
COc1ccc(C(=O)NC2CCN(CC(=O)NCc3ccccc3F)CC2)cc1,-18%
COc1cccc(Nc2nc3ccc(C(=O)c4ccccc4)cc3n3cnnc23)c1,-14%
Cc1ccc(NC(=O)Cn2c(=O)oc3ccccc32)cc1,-10%
CC1CCC2(CC1)NC(=O)N(Cc1nnc(-c3cccs3)o1)C2=O (stereo not drawn),1%
O=C1CCCc2cc(S(=O)(=O)N3CCCC(C(=O)NCc4ccccc4Cl)C3)ccc2N1 (stereo not drawn),-1%
Cc1sc2c(c1C)c(=O)n(CCc1ccccc1)c(=O)n2Cc1ccc(F)cc1,13%
COc1ccc(C2c3c(oc4ccccc4c3=O)C(=O)N2c2ccccn2)cc1OC (stereo not drawn),4%
O=C(CCc1ccccc1)NNC(=O)c1ccccn1,6%
